B2AR ag: human beta-2 adrenergic receptor agonism by FAP; Am2.2-beta2AR cells, FAP receptor internalization, flow cytometry; reference of the scale not given here; response, % (no concentration beside the values); P07550; hit rate 0.43% among 340,000;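 active = response above a set limit, near 3 SD of response in nonfluorescent compounds, cut at about 42% in these data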;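 note: stock transfer was 100 nL into about 11 µL; a reference agonist was the positive control; negative values mostly stem from fluorescent compounds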
Target sequence (P07550 whole entry, looked up): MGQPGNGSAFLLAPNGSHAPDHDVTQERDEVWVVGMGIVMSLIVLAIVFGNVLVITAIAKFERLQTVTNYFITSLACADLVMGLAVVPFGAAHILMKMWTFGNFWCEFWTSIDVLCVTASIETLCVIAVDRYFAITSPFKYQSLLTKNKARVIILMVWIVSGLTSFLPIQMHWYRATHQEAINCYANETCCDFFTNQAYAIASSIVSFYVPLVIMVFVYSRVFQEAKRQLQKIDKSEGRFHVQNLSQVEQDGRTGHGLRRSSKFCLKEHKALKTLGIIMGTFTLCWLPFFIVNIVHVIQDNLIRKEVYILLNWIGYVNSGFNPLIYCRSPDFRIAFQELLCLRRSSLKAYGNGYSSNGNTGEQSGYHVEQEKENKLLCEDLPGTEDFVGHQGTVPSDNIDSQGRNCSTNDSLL
T cruzi repl: T. cruzi replication inhibition | inhibition, % (concentration not given with the values) | T. cruzi beta-gal in NIH3T3, luminescence, 90 h | hit rate 1.4% among 300,000;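 active = mean inhibition across valid replicates above about 55%, limit read from the data; inconclusive = mean below that limit but half or more replicates reach it; inactive = mean below it, under half of replicates reach it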;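 note: signal also drops with host cell toxicity which is not excluded here; 0% = plate median of DMSO wells and 100% = zero luminescence signal; higher percent means less beta-gal luminescence so fewer parasites; stock transfer was 50 nL into about 50 µL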
RanGTP-Impb inh: disruptors of Ran-importin-beta complex formation – biochemical, FRET, CFP-Ran, YFP-importin-beta, homogeneous, primary screen | hit rate 1.1% among 300,000 | inhibition, % (test concentration not listed) | cell-free CFP-Ran/YFP-importin-beta FRET ratio | AID 2216;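 active = most replicates above 15%; inconclusive = exactly half above 15%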;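 note: 0% = DMSO wells and 100% = Ran loaded with GDP instead of GTP; wells of about 40 µL received 100 nL stock; the first replicate is given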
A1 inh: inhibitors of the anti-apoptotic protein A1, read as caspase activation. caspase activation, % (no concentration beside the values). hit rate 0.066% among 330,000. MEF A1-2A-BIM cells, Caspase-Glo 3/7 luminescence, 3 h; percent of clofoctol response, vehicle zero;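 active = over half of replicate activation scores above 10%, or exactly half above 10 with the replicate mean above 10; inconclusive = replicate mean below 10 yet half the replicates above 10; inactive = over half of replicates below 10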;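 note: wells of about 30 µL received 50 nL stock; many hits fall short of the cut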
LANA-H2B inh: blocks KSHV LANA binding to histone H2A/H2B; cell-free LANA-H2A/H2B peptide, fluorescence polarization; hit rate 0.6% among 320,000; inhibition, % (no concentration beside the values); AID 2629; Q9QR71; in the data active = inhibition mostly above about 10%, no sharp cut-off; inactive = mostly below about 6.7%;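 note: stock transfer was 7.5 nL into about 10 µL; 0% = median of vehicle wells and 100% = median of positive control wells; one replicate is shown; the record names a cut of 25% in any replicate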
UCH37 DUB inh: human UCH37 deubiquitinating enzyme inhibition | Q9Y5K5 | hit rate 0.33% among 330,000 | purified proteasome/UCH37, Ub-AMC cleavage fluorescence | inhibition, % (no concentration beside the values);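 active = mean of two replicates above 20%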;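 note: 0% = compound-free wells with enzyme and 100% = wells lacking proteasome; stock transfer was 100 nL into about 20 µL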
Target sequence (Q9Y5K5 whole entry, looked up): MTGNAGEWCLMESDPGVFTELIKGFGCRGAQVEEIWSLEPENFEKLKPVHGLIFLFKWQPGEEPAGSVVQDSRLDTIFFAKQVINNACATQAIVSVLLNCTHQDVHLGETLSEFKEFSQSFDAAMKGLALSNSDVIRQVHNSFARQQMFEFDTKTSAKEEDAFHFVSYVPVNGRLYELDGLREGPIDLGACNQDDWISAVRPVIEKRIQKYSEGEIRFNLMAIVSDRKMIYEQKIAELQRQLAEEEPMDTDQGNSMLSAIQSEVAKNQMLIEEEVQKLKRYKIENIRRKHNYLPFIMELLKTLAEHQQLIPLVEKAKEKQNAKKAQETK
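assay system = human UCH37 enzyme supplied as purified proteasome complex | amount = proteasome at 0.15 nM in the dispensed enzyme solution | schedule = 30 min compound-proteasome preincubation then 25 min substrate reaction, room temperature | measured by = fluorescence, ex 355 nm, em 460 nm | benchmarks = no-proteasome wells (full inhibition) and compound-free wells (no inhibition)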
Calb FLC: C. albicans growth modulation with fluconazole. C. albicans CaCi-2 (fluconazole-resistant clinical isolate) + fluconazole, Alamar Blue growth, 48 h. hit rate 0.57% among 300,000. growth inhibition, % (test concentration not listed). AID 1979;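 active = most replicates above 75%; inconclusive = exactly half above 75%; inactive = most below 75%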;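 note: all wells also contain fluconazole at 8 µg/ml as a sub-toxic cotreatment; 0% = median of DMSO wells and 100% = median of geldanamycin control wells; wells of about 8 µL received 7.5 nL stock; the first replicate is given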
Beta cell apopt: beta cell apoptosis inhibition | INS-1E cytokine-induced death, ATP luminescence, 48 h; percent of positive-control rescue, neutral wells zero | protection from apoptosis, % (no concentration beside the values) | hit rate 0.8% among 300,000 | AID 435005;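 active = all replicates at 75% or more, or half of them and the mean; inconclusive = half reach 75% but not the mean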;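 note: 0% = cytokine-treated negative control wells and 100% = positive control rescue; higher means more ATP so stronger rescue from cytokine killing; wells of about 40 µL received 100 nL stock; the first replicate is given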
Numbers without * were called inactive; ? = inconclusive; / = not tested or not shown.

The line under a structure holds: B2AR ag | T cruzi repl | RanGTP-Impb inh | A1 inh | LANA-H2B inh | UCH37 DUB inh | Calb FLC | Beta cell apopt
- COc1ccc(C2C(C(C)=O)=C(O)C(=O)N2c2cccnc2)cc1OC (stereo unspecified)
 : 1 | -5 | 2.9 | 0.6 | -1.1 | 9.9 | -5 | 0
- CCc1nnc(NC(=O)c2csc3c2CCC(C)C3)s1 (stereo unspecified)
 : / | -4 | 0.0 | 0.9 | 0.7 | -0.2 | 0 | -2
- Cc1ccccc1NC(=O)Cc1nc(COC(=O)c2cccc(O)c2)cs1
 : 0 | / | / | 0.9 | 0.0 | 3.3 | / | 3
- COc1ccc(C2CC(=O)C(C=NCCCN3CCOCC3)=C(O)C2)cc1 (stereo unspecified)
 : 4 | 2 | -0.2 | 0.7 | 3.6 | -0.6 | -1 | -5
- Cc1ccc(CNC(=O)CSCc2cccc(F)c2)cc1
 : -4 | -9 | -0.6 | -0.4 | 2.5 | 2.1 | 94* | -4
- COCCN(CC1CCCN(C2Cc3ccccc3C2)C1)C(=O)CCSC (stereo unspecified)
 : -1 | 39 | 0.4 | -0.1 | -0.2 | 2.3 | -2 | /
- CCCC(=O)Nc1ccc2nc(C)n(Cc3ccccc3Cl)c(=O)c2c1
 : 4 | -15 | 1.1 | 0.9 | -4.8 | 2.9 | -4 | -9
- CCCn1nnc(NC(=O)c2ccc(F)cc2)n1
 : 10 | -19 | 6.0 | -0.5 | -3.5 | 5.8 | -8 | 5
- CC(Oc1ccc(Cl)cc1)C(=O)Nc1sccc1C(N)=O (stereo unspecified)
 : -8 | 9 | 4.8 | 0.8 | 1.1 | 1.7 | -3 | -1
- CC1CN(S(=O)(=O)c2cccc(-c3cn4ccccc4n3)c2)CC(C)O1 (stereo unspecified)
 : -11 | -7 | 0.0 | 0.4 | -1.1 | -3.7 | 1 | -1

The results go on:
The line under a structure holds: B2AR ag | T cruzi repl | RanGTP-Impb inh | A1 inh | LANA-H2B inh | UCH37 DUB inh | Calb FLC | Beta cell apopt
- O=C(CN1CCOCCOCCOCC1)Nc1ccccc1
 : -12 | -12 | -1.3 | 0.7 | -0.4 | 0.5 | -16 | 0
- CC/C(=C1/C(=O)CC(C)(C)C(C(=O)OC)C1=O)N1CCCC1 (stereo unspecified)
 : -5 | 5 | -1.2 | 3.7 | -2.2 | 0.8 | 2 | -7
- Cc1ccc(C(=O)Nc2ccc3c(c2)OCO3)cc1S(=O)(=O)N1CCCCC1
 : 21 | -2 | 0.9 | -0.9 | 7.7 | 1.2 | 11 | 5
- COc1cccc(-c2cc(=O)c3cc(NC(C)=O)ccc3[nH]2)c1
 : -1 | -10 | 4.8 | -0.4 | -0.5 | 2.1 | -4 | -4
- CC1(C(=O)O)CCC(C(=O)Nc2ccccc2O)C1(C)C (stereo unspecified)
 : 8 | -19 | 3.6 | -0.3 | -3.5 | 2.7 | 4 | -11
- CCOC(=O)/C(=C\C=C\c1ccccc1)NC(=O)c1ccccc1
 : -5 | 9 | 0.0 | 0.4 | 1.6 | 4.2 | 1 | -3
- Cc1ccc(O)c(C2=NNC(O)(C(F)(F)F)C2)c1 (stereo unspecified)
 : 1 | 8 | 0.6 | -0.1 | -5.6 | -0.3 | 4 | 13
- CC(=O)Nc1ccc(S(=O)(=O)/N=C2/NC(=O)/C(=C\c3ccco3)S2)cc1
 : -7 | 3 | 3.1 | 0.2 | 0.3 | 8.4 | -7 | 1
- Cc1cc([N+](=O)[O-])nn1CC(=O)NNC(=S)Nc1ccc(F)cc1
 : 5 | 7 | 5.9 | 0.1 | -9.6 | / | -13 | -3
- COc1ccc(NC(=S)NNS(=O)(=O)c2ccc3ccccc3c2)c(OC)c1
 : 6 | -15 | 1.4 | -2.1 | -1.1 | 1.8 | 22 | -5

3 compounds out of the list above, ordered by the value under UCH37 DUB inh, high to low:
Compound | B2AR ag | RanGTP-Impb inh | LANA-H2B inh | UCH37 DUB inh
CC(=O)Nc1ccc(S(=O)(=O)/N=C2/NC(=O)/C(=C\c3ccco3)S2)cc1 | -7 | 3.1 | 0.3 | 8.4
CCCC(=O)Nc1ccc2nc(C)n(Cc3ccccc3Cl)c(=O)c2c1 | 4 | 1.1 | -4.8 | 2.9
COc1cccc(-c2cc(=O)c3cc(NC(C)=O)ccc3[nH]2)c1 | -1 | 4.8 | -0.5 | 2.1

Continuation.
The line under a structure holds: B2AR ag | T cruzi repl | RanGTP-Impb inh | A1 inh | LANA-H2B inh | UCH37 DUB inh | Calb FLC | Beta cell apopt
- Cc1ccc(C(=O)Nc2ccc(Nc3ccccc3)cc2)cc1Br
 : 11 | 37 | 7.9 | -1.0 | -3.4 | -0.8 | -3 | 6
- Cc1nc(SCC(=O)c2ccc(Cl)s2)c2oc3ccccc3c2n1
 : -7 | 28 | 8.6 | -0.4 | 1.5 | 6.1 | -7 | 3
- COc1ccc(-c2csc(C3=C(O)CN(Cc4ccc(Cl)cc4)C3=N)n2)cc1OC
 : 21 | 11 | -0.4 | -1.5 | 2.8 | 2.3 | -2 | 5
- CCOC(=O)NC1(NC2CCCCC2)Oc2ccccc2O1
 : 12 | -33 | 1.6 | -1.3 | 13 | -0.5 | 1 | 0
- Cc1nnc(-c2cccc(Br)c2)c2cn(-c3ccccc3)nc12
 : -9 | 36 | -1.2 | -0.6 | 2.8 | 5.3 | 11 | 10
- C=CCN1CN=C(NS(=O)(=O)c2ccc(NC(C)=O)cc2)NC1
 : -6 | -15 | -5.3 | -0.1 | 5.6 | 2.2 | 5 | -2
- CN1CCN(Cc2cccc3ncccc23)CC1CCO (stereo unspecified)
 : -1 | 16 | 5.2 | 0.5 | 4.0 | -0.4 | 0 | /
- O=C1/C(=C/c2cccc(Cl)c2)CSc2sccc21
 : -6 | 4 | -1.5 | -0.1 | -6.2 | 3.6 | 4 | -6
- Cc1ccc(S(=O)(=O)N2CCC3(CC2)CC(=O)c2ccccc2O3)cc1
 : -2 | 4 | 1.4 | 0.4 | 1.0 | -7.6 | 4 | 0
- CC1CCN(C2=NC(=O)/C(=C/c3ccc(O)cc3)S2)CC1
 : 0 | 3 | -3.2 | 1.6 | -3.8 | 7.4 | 0 | 5

More records follow.
The line under a structure holds: B2AR ag | T cruzi repl | RanGTP-Impb inh | A1 inh | LANA-H2B inh | UCH37 DUB inh | Calb FLC | Beta cell apopt
- C#CCOCCOCCOCCNc1nc(N2CCN(C(=O)CCCCCCCCCCNC(=O)[C@@H](CCC(=O)O)n3cc(CCCCCN)nn3)CC2)nc(N2CCN(C(=O)CCCCCCCCCCNC(=O)[C@H](CO)n3cc(CCCCCN)nn3)CC2)n1
 : 9 | / | / | ? | -3.2 | 3.5 | / | -17
- CCCc1cc(=O)oc2cc(OCC(=O)NC3CC(C)(C)NC(C)(C)C3)ccc12
 : -6 | 2 | 2.3 | 1.0 | 1.1 | -22 | -5 | -6
- COc1ccc(N=C(C)C2=C(O)COC2=O)cc1
 : -4 | 1 | -0.3 | 0.0 | -2.2 | 5.9 | -19 | 0
- CCn1ncc(/C=C/C(=O)Nc2c(C)nn(Cc3ccc(Cl)cc3Cl)c2C)c1C
 : -6 | -1 | 3.0 | 0.1 | 2.2 | 5.4 | 2 | 19
- COC(=O)CCC(=O)Nc1ccc(Cl)c(Cl)c1
 : 18 | -9 | 0.4 | 0.3 | 4.9 | 1.6 | -5 | /
- O=C(C1=NN[C@@H]2C(=O)N(c3cccc(C(F)(F)F)c3)C(=O)[C@H]12)c1ccc2ccccc2n1
 : -3 | -21 | -2.0 | 0.2 | 0.5 | 8.1 | -7 | -2
- O=C(CNC(=O)c1ccccn1)N/N=C/c1ccc2c(c1)OCO2
 : 0 | 10 | -4.1 | -0.9 | -1.0 | / | -2 | -1
- CCC1=NN(C(=O)c2cccc(Br)c2)C(O)(c2ccc(Br)cc2)C1 (stereo unspecified)
 : 20 | 5 | -0.8 | 1.3 | -0.8 | 0.0 | 4 | ?
- Cc1ccc(NC(=O)/C(=C\c2ccccc2)NC(=O)c2ccco2)cc1
 : -5 | 4 | 3.5 | -0.3 | 16* | 3.1 | -2 | -4
- COc1cccc(NC(=O)CN2CCCCCC2)c1
 : -1 | -34 | -0.6 | 0.8 | -3.0 | 1.0 | -2 | /

Whole records as entered above:
COc1cccc(NC(=O)CN2CCCCCC2)c1 is listed as B2AR ag: -1; T cruzi repl: -34; RanGTP-Impb inh: -0.6; A1 inh: 0.8; LANA-H2B inh: -3.0; UCH37 DUB inh: 1.0; Calb FLC: -2; Beta cell apopt: /
O=C(C1=NN[C@@H]2C(=O)N(c3cccc(C(F)(F)F)c3)C(=O)[C@H]12)c1ccc2ccccc2n1 is listed as B2AR ag: -3; T cruzi repl: -21; RanGTP-Impb inh: -2.0; A1 inh: 0.2; LANA-H2B inh: 0.5; UCH37 DUB inh: 8.1; Calb FLC: -7; Beta cell apopt: -2

(more compounds)
structure	B2AR ag	T cruzi repl	RanGTP-Impb inh	A1 inh	LANA-H2B inh	UCH37 DUB inh	Calb FLC	Beta cell apopt
O=C(NCCc1ccccc1)C(NS(=O)(=O)c1cccc2nsnc12)c1ccccc1 (stereo unspecified)	-4	1	-6.0	-0.6	-1.9	2.7	0	3
COc1ccc(C2SCCN2C(=S)Nc2cccc(C(F)(F)F)c2)cc1 (stereo unspecified)	-7	-49	-4.8	0.3	-9.4	0.5	7	-10
CCOC(=O)N1CCN(C(=O)/C(=C/c2ccc(Cl)cc2)NC(=O)c2ccccc2)CC1	-6	-4	-3.9	0.4	-2.6	-1.4	4	-5
COc1ccc(/C=N/NC(=O)Nc2cccc3nsnc23)cc1OC	17	44	-3.5	-1.1	8.3	/	18	18
COc1ccc(CNC(=O)C2CCCN2C(=O)NC2CCCCC2)cc1 (stereo unspecified)	-6	-10	-2.1	0.5	2.6	1.0	-30	/
Cc1ccc(C(=O)Nc2ccncc2)c(C)c1	3	-16	1.7	-0.2	-3.1	0.9	55	/
CC(=O)NCCc1nc2ccccc2n1Cc1cc(C)ccc1C	-3	1	-0.6	-0.4	6.7	0.9	-9	2
CCCn1c(CCc2ccccc2)n[nH]c1=S	2	2	5.7	-0.1	-1.8	2.2	-4	33
COc1ccccc1C(=O)N/C(=C/c1ccc(Br)cc1)C(=O)NCCO	-36	-3	1.5	0.3	1.1	3.9	?	-5
COc1ccc(CN(C)C(=O)C2CC(=O)N(c3ccc4c(c3)OCCO4)C2)c(OC)c1 (stereo unspecified)	7	/	/	-0.1	-0.6	-0.5	/	-1
CCc1ccc(N(C(=O)c2csnn2)C(C(=O)NC(C)(C)CC)c2ccccn2)cc1 (stereo unspecified)	0	-9	-2.4	?	2.3	4.4	4	-4
Cn1c(SCC(=O)NC2CCCCC2)nnc1-c1ccccc1F	5	-12	-0.8	-1.2	-1.5	0.2	0	-3
COC(=O)COc1ccc(S(=O)(=O)NCCC2=CCCCC2)cc1C	5	-2	?	0.4	-2.1	55*	-32	-8
Cc1cccc2cc(CN(CC3CCCO3)C(=O)c3ccco3)c(=O)[nH]c12 (stereo unspecified)	5	-9	6.2	-0.5	1.1	-5.9	-1	0
Cc1nc2c(C(=O)NCc3cccs3)cnn2c(C)c1Cc1ccccc1	/	20	2.4	0.2	0.9	-29	7	9

Screening data deposited in PubChem BioAssay by several laboratories.
